MT1-MMP act inh = MT1-MMP (human) activation inhibition | GFP/RFP ratio change, % at 20 µM | P50281 | HT1080 RFP-PRO-GFP cells, GFP/RFP ratio fluorescence, overnight; percent of plate control window, DMSO zero | 360,000 tested, 0.061% active | AID 651647;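 active means GFP/RFP ratio change of at least 30% with cell ATP level not reduced by more than half and red fluorescence within 50% of control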; further: strong numbers were not always called active
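Material: RFP-PRO-GFP reporter HT1080 cells. Dosing: single-point 20 µM compound, 1% DMSO. Controls: DMSO and RFP-L50D-GFP cell wells. Timing: cells overnight before dosing, compound overnight, 37 °C, 5% CO2. Measure: GFP/RFP fluorescence ratio.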
PABP FP inh = blocks human PABP binding to poly(A) RNA. P11940. fluorescence polarization. inhibition, % at 35 µM. 290,000 tested, 1% active;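 active means 50% or more with normal probe brightness, or confirmed in later tests; inconclusive means above 50% with abnormal brightness, or retests that disagree; inactive means below 50% or failed in later tests; about a fifth of its hits are not listed in these tables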;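 further: calls also rest on retests at 20 µM and on dose response follow-up; controls were probe without protein and protein plus probe with vehicle; some compounds called inactive have numbers as strong as hits; many hits fall short of the cut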
Target sequence (P11940 whole entry, looked up): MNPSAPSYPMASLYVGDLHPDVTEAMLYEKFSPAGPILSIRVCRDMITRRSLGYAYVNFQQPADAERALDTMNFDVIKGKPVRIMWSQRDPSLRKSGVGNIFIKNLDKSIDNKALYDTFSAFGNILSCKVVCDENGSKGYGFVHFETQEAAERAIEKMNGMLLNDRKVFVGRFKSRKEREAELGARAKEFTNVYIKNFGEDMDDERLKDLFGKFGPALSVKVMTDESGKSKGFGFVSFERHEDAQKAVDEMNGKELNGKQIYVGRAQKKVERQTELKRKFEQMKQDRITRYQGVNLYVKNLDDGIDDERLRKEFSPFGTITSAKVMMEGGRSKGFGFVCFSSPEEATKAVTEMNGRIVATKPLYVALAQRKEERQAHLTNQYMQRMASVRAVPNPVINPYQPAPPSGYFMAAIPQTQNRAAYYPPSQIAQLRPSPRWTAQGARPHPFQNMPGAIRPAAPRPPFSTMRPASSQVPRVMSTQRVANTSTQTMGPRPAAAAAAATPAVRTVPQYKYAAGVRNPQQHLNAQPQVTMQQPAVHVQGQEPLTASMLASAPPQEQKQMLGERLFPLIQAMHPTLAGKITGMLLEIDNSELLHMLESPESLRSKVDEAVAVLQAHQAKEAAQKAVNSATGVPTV
Rce1 inh = inhibitors of yeast Ras-converting enzyme | Q03530 | yeast membranes, quenched prenylated peptide cleavage fluorescence | calls only | 290,000 tested, 0.27% active;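 active means fall in fluorescence gain of 50% or more versus controls, with final raw signal at or below 3038400; inconclusive means same 50% fall but final raw signal above 3038400; inactive means fall in fluorescence gain under 50%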;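 further: plate controls were neutral control wells for no effect and wells lacking membranes for full effect; tested at 10 µM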
Target sequence (Q03530 whole entry, looked up): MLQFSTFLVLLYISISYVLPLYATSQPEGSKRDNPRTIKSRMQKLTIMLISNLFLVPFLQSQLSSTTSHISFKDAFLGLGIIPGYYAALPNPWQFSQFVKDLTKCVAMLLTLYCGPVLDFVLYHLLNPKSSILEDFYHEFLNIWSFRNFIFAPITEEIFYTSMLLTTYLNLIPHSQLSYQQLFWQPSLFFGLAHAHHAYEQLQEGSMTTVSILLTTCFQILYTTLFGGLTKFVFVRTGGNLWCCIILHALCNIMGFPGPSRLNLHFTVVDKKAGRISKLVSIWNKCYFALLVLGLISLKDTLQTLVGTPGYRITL
eIF4H inh = inhibitors of RNA binding by human eIF4H; eIF4H fluorescence polarization binding assay; inhibition, % at 35 µM; 290,000 tested, 0.94% active; AID 2012;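 active means 50% or more with normal probe brightness, or confirmed in later tests; inconclusive means above 50% with abnormal brightness, or retests that disagree; inactive means below 50% or failed in later tests; about a fifth of its hits are not listed in these tables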;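 further: calls also rest on retests at 20 µM and on dose response follow-up; 0% = protein and probe with vehicle and 100% = probe without protein; strong numbers were not always called active; many hits fall short of the cut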
UUG fidelity = modulators of start codon recognition fidelity in yeast; activity score, % at 18.7 µM; S. cerevisiae UUG-firefly luciferase reporter, luminescence/redox ratio; 350,000 tested, 0.13% active;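 active means replicate mean at a twofold rise or more, about +100% in these data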;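 further: firefly luciferase made from a UUG start codon reports start codon fidelity; reporter light over untreated wells divided by growth signal over untreated wells; some hits fall short of that in this replicate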
HIV Env fusion = blocks HIV Env-driven cell-cell fusion; 360,000 tested, 1.1% active; inhibition, % at 12.3 µM; HeLa-JRFL Env/CEM21 cell fusion, luciferase;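 active means mean replicate inhibition score of at least 50 and every replicate individually at or above 50; inconclusive means only one of the two criteria met; inactive means mean below 50 and not all replicates reaching 50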;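 further: 0% = plate neutral controls and 100% = maraviroc near 300 nM; one replicate is shown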
CSC inhib = blocks cancer stem cells. cancer stem cell-like cells viability, luminescence. inhibition, % at 7.5 µM. 300,000 tested, 1.1% active;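 active means mean at 75% or more and at least half the replicates too; inconclusive means mean and replicates disagree; tested in HMLE shEcad cells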;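 further: 0% = median of negative and 100% = median of positive control wells; the first replicate is given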
eIF4H inh retest = also measured in eIF4H inh; calls as there; inhibition, %; compound at 20 µM; confirmation average;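 mean of two retest wells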
PABP FP inh retest = also measured in PABP FP inh; calls as there; inhibition, %; compound at 20 µM; confirmation repeats;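 mean of two retest wells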
MT1-MMP act inh RFP = also measured in MT1-MMP act inh; calls as there; RFP signal change, %; measured here: RFP expression control read;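 0 = vehicle wells; hits needed this value within 50% of zero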
Active calls of the source: *; i = inactive; ? = inconclusive; nt = not tested or not shown; & = joins results of further samples.

SMILES	MT1-MMP act inh	MT1-MMP act inh RFP	PABP FP inh	Rce1 inh	eIF4H inh	UUG fidelity	HIV Env fusion	CSC inhib	others
CC1=CC2=NC(=O)/C(=C\c3cccn3CCOc3cc(C)cc(C)c3)C(=N)N2O1	-9	-9	-4	i	-8	4	nt	-15
Cc1cc2oc(=O)cc(CN3CCN(Cc4ccccc4)CC3)c2cc1C	2	1	3	i	-3	-17	11	nt
NC(=O)CC(NC(=O)Cc1ccc(Br)cc1)c1ccc(NC2CCCCCCC2)c([N+](=O)[O-])c1 (stereo not drawn)	10	-1	nt	nt	nt	3	3	nt
COCCNS(=O)(=O)c1ccc2c3c(cccc13)C(=O)N2C	4	8	-3	i	4	nt	-8	11
COC(=O)C1=C(C)NC(=O)/C1=C\c1cc(C)n(-c2ccccc2C)c1C	-56	1	49*	i	57*	9	nt	nt	eIF4H inh retest=98*;PABP FP inh retest=96*
COc1cc(NC(=O)c2ccc(C)cc2)c(OC)cc1NC(=O)CN1CCCCC1	1	0	8	i	16	-6	nt	-8
COc1ccc(N2CC(C(=O)OCC(=O)Nc3ccccc3C)CC2=O)cc1 (stereo not drawn)	1	-1	9	i	6	19	16	-3
C[C@H](CO)N1C[C@H](C)[C@@H](CN(C)C(=O)NC2CCCCC2)Oc2c(NC(=O)Nc3ccccc3)cccc2C1=O	7	2	nt	nt	nt	7&20	-10	14
Fc1ccc(Cn2nnnc2CN2CCc3ccccc3C2)cc1	5	1	9	i	-3	-5	nt	-17
COc1cc(/C=C2\SC(=S)N(Nc3ccccc3)C2=O)cc(OC)c1OC	5	5	-2	i	-12	-8	nt	3
O=C(OCCSCCOC(=O)C1CC=CCC1)C1CC=CCC1 (stereo not drawn)	-1	7	nt	nt	nt	-6	-22	nt
O=C(NCCCN1CCOCC1)C(=O)N/N=C/c1c2ccccc2cc2ccccc12	-38	-14	2	i	9	19	-334	43
CCCCCCSc1nsc(NC(=O)CCC)n1	-5	-1	-6	i	-9	nt	-9	54
Cc1cccc(OCc2nnc(SCC(=O)Nc3sc(C)c(C)c3C#N)n2C)c1	3	0	12	i	18	-16	-31	-9
Cc1ccc(C)c(OCCC(=O)NCCc2ccc(Cl)cc2)c1	-2	0	-1	i	-2	-28	nt	-7
COc1ccc(CN(C(=O)c2oc3ccccc3c2C)C2CCS(=O)(=O)C2)cc1 (stereo not drawn)	-2	-6	1	i	4	-3	nt	-12
Cc1nc(C)c(-c2ccc(SCC(=O)Nc3cccc(Cl)c3)nn2)s1	2	-27	3	i	-11	-15	34	-1
CCCN1CCc2c(sc(NC(=O)Cc3ccc(F)cc3)c2C(N)=O)C1	-2	-3	6	i	-5	-10	3	-1
Cc1ccc(CN2CCN(Cc3cccc4c3OCO4)CC2CCO)cc1 (stereo not drawn)	1	5	-9	i	-5	nt	-7	21
C/C(=N\NC(=O)c1nn(C)cc1Br)c1ccncc1	4	5	0	i	4	nt	-8	-9
COc1cc(S(=O)(=O)NC2CCCC2)ccc1Cl	1	6	9	i	-7	8	nt	3
CC1(C)CC(=O)C(CC(=O)N2CCC(Cc3ccccc3)CC2)C(=O)C1	-6	-4	?	i	0	nt	21	14
CCOc1ccc(/C=N/Nc2ccccn2)cc1	6	1	-4	nt	-5	nt	-181	6
Cc1ccnc(NC(=O)CCc2c(C)nc3ncnn3c2C)c1	1	0	2	i	-4	1	-23	-7
Cc1cc(C)n(CC(=O)NC2CCCc3c2cnn3-c2ccc(C)c(C)c2)n1 (stereo not drawn)	1	-11	1	i	-8	19	-19	8
COc1cc(C)c(N)cc1C(C)C	1	4	14	i	0	-20	nt	-15
CC(C)COc1cccc(C(=O)Nc2ccc(CN3CCOCC3)cc2)c1	7	-6	-1	i	2	-5	18	37
CN(C)c1cccc(C(=O)NNC(=O)C23CC4CC(CC(C4)C2)C3)c1	17	-3	nt	nt	nt	-21	-27	-14
C/C(=N\NC(=O)c1nonc1N)c1cccs1	-2	5	-26	i	-6	-21	nt	3
O=C(NCc1cccs1)C1CC(O)CN1C(=O)Nc1ccccc1 (stereo not drawn)	-1	1	2	i	-4	-13	2	-9
CCc1cccc(CC)c1NC(=O)Cn1c(-c2ccc(F)cc2)noc1=O	-1	5	-2	i	7	nt	-6	-11
CC(=O)c1ccc(Nc2cc(C)nc3ncnn23)cc1	-1	4	-2	i	4	6	0	-8
Cc1ccc(S(=O)(=O)N2CCN(C(=O)CSc3ccccn3)CC2)c(C)c1	-4	-5	nt	i	nt	-10	-33	-7
O=C(c1ccncc1)N1CCN(S(=O)(=O)c2ccc3ccccc3c2)CC1	4	-7	-8	i	0	-1	2	-6
COC(=O)[C@@H](Cc1ccccc1)NC(=O)NCCc1ccc(OC)c(OC)c1	-3	0	1	i	1	-5	-14	-7
COc1ccc(CCNC(=O)C2CCCN(c3nc4ccccc4s3)C2)cc1OC (stereo not drawn)	3	0	9	nt	8	-2	7	-2
CC1(C)OC(=O)C(=CNn2cnc3ccccc3c2=O)C(=O)O1	0	-1	9	i	1	-10	nt	-3
CS(=O)(=O)c1ccc(NCCN2CCOCC2)c([N+](=O)[O-])c1	-1	0	-7	i	-4	-7	2	nt
COc1ccc(C2C(C#N)=C(N)Oc3cc(O)ccc32)cc1 (stereo not drawn)	-9	-1	nt	nt	nt	-14	10	nt
CC(=O)Oc1ccc(CCC(C)OC(C)=O)cc1 (stereo not drawn)	-4	0	-8	i	-10	-3	nt	-5

Copied from the listing (two entries):
SMILES	MT1-MMP act inh	MT1-MMP act inh RFP	PABP FP inh	Rce1 inh	eIF4H inh	UUG fidelity	HIV Env fusion	CSC inhib	others
COc1ccc(C2C(C#N)=C(N)Oc3cc(O)ccc32)cc1 (stereo not drawn)	-9	-1	nt	nt	nt	-14	10	nt
CC(=O)Oc1ccc(CCC(C)OC(C)=O)cc1 (stereo not drawn)	-4	0	-8	i	-10	-3	nt	-5

Next part
SMILES	MT1-MMP act inh	MT1-MMP act inh RFP	PABP FP inh	Rce1 inh	eIF4H inh	UUG fidelity	HIV Env fusion	CSC inhib	others
COc1cccc(CNC(=O)C2CCN(S(=O)(=O)N3CCC4(CC3)OCCO4)CC2)c1	1	2	-3	i	8	nt	9	-6
COc1cc(OC)cc(C(=O)NNC(=O)CCC(=O)c2cc(C)sc2C)c1	2	4	nt	nt	nt	-19	8	-20
CC1(C)Oc2ccc3ccc(=O)oc3c2/C(=C/NC2CCCCC2)C1=O	-6	-6	-1	nt	-6	1	-16	-11
NC(=O)c1ccc(/C(N)=N/S(=O)(=O)c2cc(C(F)(F)F)cc(C(F)(F)F)c2)cc1	-2	-6	23	i	6	7	1	-7
COc1cc2c(cc1NC(=O)C(c1ccccc1)c1ccccc1)CCCC2	-3	-9	1	i	-2	nt	nt	-16
COc1ccc(OC(=O)N2CCOCC2)cc1	4	5	-8	i	0	10	-10	-15
COc1ccc(Oc2ccc(C(F)(F)F)cc2NC(=O)c2ccc(C)cc2)cc1	-2	-3	-4	i	-3	-6	14	24
CCOc1ccc(CCNC(=O)Cn2nc(C)n3cccc3c2=O)cc1OCC	-2	4	6	i	-17	4	nt	-2
CC(=O)Oc1ccc2occ(C(=O)c3cccs3)c2c1	-2	-2	69	i	-1	-3	-203	-10	eIF4H inh retest=4;PABP FP inh retest=7
CC(=O)Nc1ccc(/C=N/NC(=S)NC(C)C)cc1	5	3	-7	i	8	nt	4	-13
CCOC(=O)N1CCN(C(=O)CN(C)S(=O)(=O)c2ccc(F)cc2)CC1	2	3	1	i	-18	-9	-4	-11
CCNS(=O)(=O)c1ccc(CCC(=O)N2CCN(c3cccc(Cl)c3)CC2)cc1	6	-11	9	i	-4	-20	29	-2
CCN(CC)C(=O)c1ccc(O)c(OC)c1	0	5	6	i	-6	-12	nt	-9
CCOc1ccc(CNC(=O)c2ccc(Sc3ccc(Cl)cc3)c(NC(C)=O)c2)cc1	-5	-14	-5	i	0	nt	-12	-1
Cn1c(CCN2CCN(c3ccccn3)CC2)nc2cc(NC(=O)COc3ccc(Cl)cc3)ccc21	5	-29	-18	i	-9	-16	11	27
COc1ccc(Cl)cc1N(C)C(=O)CCNC(=O)Cn1cnc2ccccc2c1=O	3	1	6	i	5	-22	nt	7
O=C(NCc1ccccc1)C12CC3CC(CC(C3)C1)C2	3	2	-5	i	-3	-11	-31	-9
Cc1c(OCC(=O)N[C@@H](Cc2c[nH]c3ccccc23)C(=O)O)ccc2c1oc(=O)c1ccccc12	-3	-1	22	i	16	-3	nt	1
CCCCC1C(=O)NN(c2ccccc2)C1=O (stereo not drawn)	1	-1	nt	nt	nt	-25	-19	nt
COc1cc(C(=O)Nc2c(C)cc(C)cc2C)c(Br)c(OC)c1OC	0	-1	6	i	8	nt	6	0
CC(=O)N(c1ccc2oc(=O)sc2c1)S(=O)(=O)c1cccs1	9	5	7	i	53	23	-70	-1	eIF4H inh retest=-6;PABP FP inh retest=10
CCOc1cc(C(=O)N/N=C/C(Br)=C/c2ccccc2)cc(OCC)c1OCC	19	-6	5	i	13	nt	nt	67
N#Cc1ccccc1OCC(=O)OCC(=O)NC1CCCC1	0	4	nt	nt	nt	-24	nt	-13
CC(=O)NCCN=Cc1sc2ccccc2c1O	2	2	3	i	-2	-17	-32	-2
CN1CCN(CCC(=O)Nc2ccc(OCc3ccccc3)cc2)CC1	1	0	20	i	42	-4	10	-10
CC(=O)c1ccccc1OC(=O)c1ccco1	0	6	-10	i	1	-6	nt	-6
Cc1ccc2nc(-c3ccc(SCC(=O)Nc4ccc5c(c4)OCCO5)nc3)[nH]c2c1	7	0	-8	i	-2	nt	nt	-10
Cc1ccc(NC(=O)CS(=O)CC(=O)N(CC(=O)NC(C)(C)C)c2cccc(C)c2C)cc1 (stereo not drawn)	-1	2	7	i	2	11	1	-24
O=C1COc2ccc(S(=O)(=O)Nc3cccc(Cl)c3)cc2N1	-1	-1	5	i	-6	-19	-2	-3
Cn1c(CCNS(=O)(=O)c2ccccc2)nc2cc([N+](=O)[O-])ccc21	5	0	7	i	2	-18	9	-11
O=C(NCc1cc(C(F)(F)F)ccc1Cl)c1cccc2c1C(=O)c1ccc(N3CCC(Cc4ccccc4)CC3)cc1S2(=O)=O	-110	-2	nt	nt	nt	-9	nt	-1
CC(=O)c1c(C)[nH]c(C(=O)CSc2nnc3ccccn23)c1C	2	8	11	i	1	9	-10	6
CC(=O)c1cccc(NC(=O)CSc2nnc(-c3ccncc3)o2)c1	-3	5	nt	nt	nt	2	nt	-7
Cc1ccc(S(=O)(=O)C2(C(=O)NCc3ccccc3Cl)CC2)cc1	-3	2	8	i	3	nt	8	2
O=C(CCSCCC(=O)N1CCCC1)N1CCCC1	0	3	11	i	1	nt	-65	-10
O=C(COC(=O)C12CC3CC(CC(Br)(C3)C1)C2)Nc1c(F)cccc1F	-5	-3	nt	nt	nt	-9	7	-2
Cc1ccc2c(c1)N(CC(=O)NC1CCCCCC1)C(=O)c1cccnc1O2	7	7	-2	i	-2	-3	10	-15
COc1ccc(C(=O)Nc2ccc(NC(=O)c3cccs3)cc2)cc1Cl	2	0	6	i	0	nt	18	-6
CC(C)(CNC(=O)c1ccccc1F)CNC(=O)c1ccccc1F	5	1	nt	i	nt	-17	1	nt
CCc1nnc(NC(=O)CN2CC(C)OC(C)C2)s1 (stereo not drawn)	0	0	3	i	8	-21	-41	8
Cc1nn(C(=O)c2ccc3c(c2)OCO3)c(N)c1-c1ccccc1	5	1	-1	i	-6	-65	-12	-12
CCCCn1nc2cc(C(=O)N(CC)c3ccc(OC)cc3)ccc2c1OCC	4	5	-3	i	4	-10	nt	26

Assay outcomes: PubChem BioAssay, several laboratories
